High-throughput results deposited in PubChem by National Center for Advancing Translational Sciences (NCATS).
PINK1 expr mod = A Quantitative High throughput Screen to Identify Chemical Modulators of PINK1 Expression; PINK1 immunofluorescence, high-content cytometry, 24 h; Potency, µM (top dose mostly 76.6 µM), without a hit: at the top dose activation (PINK1 increase), most hits filed as activators; 410,000 tested, 0.2% active; AID 624263, 2012; active = well fitted activation curve with a large enough effect; inconclusive = small, poorly fitted or top-dose-only effect; inactive = flat fitted curve, though single readings scatter; cell line not stated here;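 also: potency is read from the fitted curve at half-maximal effect; % of control where 0% means no effect; nearly all actives have a fitted effect of over 65% in size; a mitochondrial uncoupler was the plate control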
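Cells are seeded, rested 12 hours, then given compound at five concentrations or DMSO for 24 hours. After fixation, blocking and antibody staining, PINK1 amount and mitochondrial localization are scored; CCCP serves as control.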
D2 ag = Beta-Arrestin HTS for Positive Allosteric Modulators of the Human D2 Dopamine Receptor: Agonists | DiscoveRx PathHunter D2 beta-arrestin, luminescence, 90 min; 100% = 57 uM dopamine signal | activation, % (concentration not given with the values) | 360,000 tested, 0.084% active; in the data active = activation above about 40%; inconclusive = about 15% to 40%; inactive = below about 15%; also: compound concentration not given in the record; the text of the record calls up to 30% inactive
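DiscoveRx PathHunter D2 beta-arrestin cells (2,100/well) attached overnight, then compound-stimulated 90 min at 37 C in HBSS/10 mM HEPES/0.1% Tween-20 buffer; beta-galactosidase complementation read by luminescence after 1 h at ambient temperature. Dopamine 57 uM final (EC100) as control.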
CtBP-E1A blk = qHTS Assay for Inhibitors of the CtBP/E1A Interaction | activity change, % (concentration not given with the values) | 340,000 tested, 0.49% active | CtBP / adenovirus E1A interaction (AlphaScreen) | AlphaScreen GST-E1A/His-CtBP binding, 1536-well; hits give low values; control for the full effect not named in the record; in the data active means activity change below about -65%; inconclusive means about -30% to -65%; inactive means above about -30%; also: % is scaled to controls: 0 for no effect and ±100 for the full control effect
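Protein mix (5X: 125 nM each GST-E1A, His-CtBP) was incubated with pinned compound 2 h at 37 deg C in dark, in 50 mM Tris pH 8.0 buffer with 300 mM NaCl. Glutathione donor and nickel acceptor beads followed; AlphaScreen signal read after 1 h.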
TRPML1 agonist = qHTS for Agonists of the Human Mucolipin Transient Receptor Potential 1 (TRPML1). Mucolipin-1 (Homo sapiens), Q9GZU1. TRPML1-expressing cells, Ca2+ dye fluorescence, FDSS; host cell line not named in the record; reference of the full effect not given here. activation, % (no concentration beside the values). 410,000 tested, 0.12% active. AID 624414, 2012; in the data active = activation above about 50%; inconclusive = about 30% to 50%; inactive = below about 30%; also: 0% is about no effect; the text of the record puts the active cut at 80%
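Cells: TRPML1-DL, 1X Tet inducer, ~16 h at 37 degrees C/5% CO2. Dye: ABD Ca8 no-wash + quencher, 45-90 min RT. Read: 10 s baseline, compound add, 110 s agonist phase; 54-4 EC80 (4uM final), 110 s antagonist phase.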
TRPML1 inh = qHTS for Inhibitors of the Human Mucolipin Transient Receptor Potential 1 (TRPML1); TRPML1-inducible cells, Ca2+ dye fluorescence, FDSS; hits give low values; inhibition of EC80 agonist-evoked calcium signal; activity change, negative = inhibition, % (concentration not given with the values); 390,000 tested, 0.02% active; in the data active means activity change below about -50%; inconclusive means about -30% to -50%; inactive means above about -30%;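 also: stimulus is agonist 54-4 at its EC80 concentration; % is scaled to controls: 0 for no effect and ±100 for the full control effect; compound concentration not given in the record; the text of the record puts the active cut at -80%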
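Calcium fluorescence in TRPML1-DL cells induced overnight with Tet: a 110 s read after compound pin addition, then a 110 s antagonist read after challenge with 54-4 at 4 uM final (EC80).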
Six1-Eya2 inh = qHTS Assay for Inhibitors of the Six1/Eya2 Interaction; Homeobox protein SIX1 (Homo sapiens) + Protein phosphatase EYA2 (Homo sapiens), …; AlphaScreen GST-Six1/His-Eya2 binding, biochemical; hits give low values; control for the full effect not named in the record; activity change, % (concentration not given with the values); 360,000 tested, 0.56% active; AID 651725, 2012; in the data active = activity change below about -65%; inconclusive = about -30% to -65%; inactive = above about -30%; also: % is scaled to controls: 0 for no effect and ±100 for the full control effect
Target sequence (O00167 whole entry, looked up): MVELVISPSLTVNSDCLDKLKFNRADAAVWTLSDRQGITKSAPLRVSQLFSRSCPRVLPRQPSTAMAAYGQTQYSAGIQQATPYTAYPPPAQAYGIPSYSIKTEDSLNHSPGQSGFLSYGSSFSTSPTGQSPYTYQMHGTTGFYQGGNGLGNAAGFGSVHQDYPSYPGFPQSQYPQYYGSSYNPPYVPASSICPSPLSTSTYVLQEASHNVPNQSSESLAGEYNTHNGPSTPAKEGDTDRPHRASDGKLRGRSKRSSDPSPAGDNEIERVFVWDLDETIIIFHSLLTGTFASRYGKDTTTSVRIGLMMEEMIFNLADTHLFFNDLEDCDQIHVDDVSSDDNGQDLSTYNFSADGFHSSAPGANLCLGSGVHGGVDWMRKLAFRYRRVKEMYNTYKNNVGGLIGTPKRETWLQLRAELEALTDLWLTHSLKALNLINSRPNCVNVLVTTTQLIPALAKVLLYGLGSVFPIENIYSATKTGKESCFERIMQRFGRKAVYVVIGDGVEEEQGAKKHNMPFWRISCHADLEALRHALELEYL
Target sequence (Q15475 whole entry, looked up): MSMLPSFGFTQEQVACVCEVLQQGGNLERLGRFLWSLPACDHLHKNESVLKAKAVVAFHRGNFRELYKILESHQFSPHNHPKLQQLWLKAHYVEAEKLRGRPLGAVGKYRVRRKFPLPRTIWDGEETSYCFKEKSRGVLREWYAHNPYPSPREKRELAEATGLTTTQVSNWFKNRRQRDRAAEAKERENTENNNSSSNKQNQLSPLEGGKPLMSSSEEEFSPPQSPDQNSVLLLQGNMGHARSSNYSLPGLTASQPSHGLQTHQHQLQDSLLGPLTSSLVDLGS
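Homogeneous AlphaScreen proximity assay pairing GST-Six1 with His-tagged Eya2 (added as 5X mix: 250 nM and 500 nM) in 50 mM Tris pH 8.0, 300 mM NaCl, 1 mM TCEP. Glutathione donor and nickel acceptor beads; 1 h, 37 °C, dark.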
The depositor's hits bear a star; ? = inconclusive; · = not tested or not shown; [ ] = dose if it differs, or a comment. No enrichment for hits. Share with any hit: about 1%.

SMILES	PINK1 expr mod	D2 ag	CtBP-E1A blk	TRPML1 agonist	TRPML1 inh	Six1-Eya2 inh
COC(=O)c1cn(NC(=O)c2cccc(N(C)C)c2)c(=O)c2ccccc12	-0.7%	-1.6	-11.0	0.8	6.5	-2.1
Cc1sc(NC(=O)CSc2nnnn2C(C)C)c(C#N)c1C	8.3%	0.9	8.8	-1.0	-16.2	-5.1
Cc1ccc(S(=O)(=O)CC(=O)Nc2sc3c(c2C(N)=O)CCCC3)cc1	4.4%	·	·	0.9	-5.6	·
CC1(C)CC(=O)CC(=NCC(=O)O)C1	·	-2.1	-6.8	0.5	-16.7	-4.3
O=C(CSc1nnc(-c2ccco2)o1)c1ccccc1	3.4%	14.8	-4.9	1.1	32.3	-8.3
OCCC1CN(CC#Cc2ccccc2)CCN1C1CCCC1 (configuration not stated)	1.0%	-0.9	-10.8	0.2	-2.0	-13.2
COc1ccc(OC)c(NC(=S)N2CCN(C/C=C/c3ccccc3)CC2)c1	-0.4%	-0.3	-13.8	1.4	-7.6	-20.7
COc1cc(NC(=O)c2ccccc2F)c(OC)cc1NC(=O)CN1CCOCC1	-0.6%	2.3	-6.3	0.4	1.1	-0.3
C[N+]1=C2CCCCCN2C(O)(c2ccccc2)C1 (configuration not stated)	·	0.5	8.1	0.2	-8.3	3.9
COc1cc(C(=O)Nc2cccc(S(=O)(=O)N3CCCC3)c2)c([N+](=O)[O-])cc1OC	-0.6%	-2.5	-2.1	0.0	-6.5	-14.9
Cc1ccc(OCC(=O)NNC(=O)c2cc(S(=O)(=O)N(C)C)ccc2N2CCCC2)cc1	-0.7%	-1.5	3.8	-0.9	29.8	-7.6
CCc1nnc(N2C(=O)c3ccc(Oc4ccc([N+](=O)[O-])cc4)cc3C2=O)s1	-1.3%	-5.4	0.4	-0.7	-9.9	-9.2
O=C(CSc1ncc(C(F)(F)F)cc1Cl)N1CCN(S(=O)(=O)c2ccccc2)CC1	-2.6%	-2.6	9.2	-1.3	-0.3	14.1
Cc1ccc(F)c(NC(=O)C2CCCCC2C(=O)O)c1 (configuration not stated)	·	4.4	8.4	0.7	13.4	3.5
COc1ccc(-c2csc(NC(=O)CN3C(=O)C4CCCCC4C3=O)n2)cc1OC (configuration not stated)	2.1%	2.8	-2.4	1.6	-9.7	-17.9
Cc1ccc(NC(=S)N2CCCCCC2)c(C)c1	-0.1%	-3.0	1.7	0.5	5.8	6.2
COC(=O)c1sc(NC(=O)c2oc3ccccc3c2C)nc1C	9.9%	-1.4	8.5	-0.3	-5.3	-0.1
Cc1ccccc1NC(=O)c1cc(S(=O)(=O)N2CCCCC2)ccc1N1CCOCC1	0.2%	0.7	-4.9	-0.8	0.8	2.1
CCn1c(O)c(C=NCCN2CCOCC2)sc1=S	1.7%	-0.3	1.2	-1.5	-0.4	-0.9
Cc1cc(NC(=O)c2cncc(Br)c2)n(-c2ccccn2)n1	-1.6%	1.6	-2.0	1.0	-15.4	9.2
CCO/C(C)=C1\N=C(c2ccc(Cl)cc2)OC1=O	-0.1%	1.5	0.8	0.5	11.4	5.9
COc1c(F)c(F)c(C(=O)Nc2ccccc2N2CCN(C(C)=O)CC2)c(F)c1F	5.9%	-0.6	-0.6	-0.5	15.4	-4.8
CN(Cc1nccn1C)C(=O)CC1C(=O)NCCN1Cc1cccc(Oc2ccccc2)c1 (configuration not stated)	4.7%	-0.6	-0.5	0.4	9.7	-10.7
O=c1[nH]cnc(O)c1C(c1ccc([N+](=O)[O-])cc1)c1c(O)nc[nH]c1=O	0.7%	-3.0	·	-0.2	84.2	-1.8
Oc1ccc(/C=N/N(c2ccccc2)c2ccccc2)cc1O	6.5%	9.3	-18.8	-0.4	15.0	-17.3
Cc1ccc2[nH]c(=O)c3cc(C(=O)N4CCN(c5ccccc5)CC4)sc3c2c1	2.7%	·	·	0.0	-16.4	·
CC(C)(C)c1nc2ccc([N+](=O)[O-])cc2[nH]1	-1.4%	-5.2	-0.7	-1.7	34.0	7.6
Cc1ccccc1-n1nc(-c2cccnc2)cc1C(=O)NN	-0.3%	-2.5	6.4	-0.2	-9.6	-3.0
CC(c1ccco1)N(C(=O)c1ccccc1NS(=O)(=O)c1cccc([N+](=O)[O-])c1)c1ccccn1 (configuration not stated)	-1.2%	5.0	-5.3	-0.6	-3.2	-5.7
COCCN(C(=O)c1csnn1)C(C(=O)NC(C)(C)C)c1cccc(OC)c1 (configuration not stated)	4.0%	-1.5	1.2	-0.5	-9.2	2.9
CC(C)C1CC(CCN)(Cc2ccccc2)CCO1 (configuration not stated)	-0.2%	-2.8	-12.2	0.3	-0.5	4.3
O=C(Nc1ccc(N2CCOCC2)cc1N1CCOCC1)c1ccc([N+](=O)[O-])cc1	3.3%	0.2	8.0	-0.8	-22.1	-0.1
COC(=O)c1c(NC(=O)c2ccc(S(=O)(=O)N3CCCCC3)cc2)sc2c1CCN(C)C2	7.3%	·	·	-0.3	-5.4	·
O=C(Nc1ccc(S(=O)(=O)N2CCCC2)cc1)c1ccc(OCC2CCCO2)cc1 (configuration not stated)	0.8%	0.4	6.7	-0.9	1.9	3.8
COc1cccc(/C=N/NC(=O)c2[nH]nc3c2CCc2ccccc2-3)c1O	?	2.6	-67.1*	0.1	-7.8	-65.7*
O=C(O)Cc1ccc(O)c(F)c1	1.6%	-3.0	6.8	-0.8	-14.1	-0.2

Four entries picked at random from those above:
SMILES	PINK1 expr mod	D2 ag	CtBP-E1A blk	TRPML1 agonist	TRPML1 inh	Six1-Eya2 inh
O=C(O)Cc1ccc(O)c(F)c1	1.6%	-3.0	6.8	-0.8	-14.1	-0.2
Oc1ccc(/C=N/N(c2ccccc2)c2ccccc2)cc1O	6.5%	9.3	-18.8	-0.4	15.0	-17.3
COc1cccc(/C=N/NC(=O)c2[nH]nc3c2CCc2ccccc2-3)c1O	?	2.6	-67.1*	0.1	-7.8	-65.7*
CC(C)C1CC(CCN)(Cc2ccccc2)CCO1 (configuration not stated)	-0.2%	-2.8	-12.2	0.3	-0.5	4.3

Next section
SMILES	PINK1 expr mod	D2 ag	CtBP-E1A blk	TRPML1 agonist	TRPML1 inh	Six1-Eya2 inh
CCOC(=O)C1=C(C)NC2=C(C(=O)OC2)C1c1ccccc1 (configuration not stated)	5.4%	0.3	6.5	0.5	-8.4	4.9
COc1ccc(S(=O)(=O)Nc2cccc(N(C)S(C)(=O)=O)c2)cc1C	7.2%	2.8	-10.5	0.8	-15.7	6.4
O=Cc1c(NCCN2CCCC2)c2ccccc2[nH]c1=O	0.3%	-4.6	0.9	0.0	-2.8	-7.7
CCc1ccc(C2N3CC4([N+](=O)[O-])CN2CC([N+](=O)[O-])(C3)C4(C)C)cc1 (configuration not stated)	13.4%	-3.5	-23.1	-0.8	46.7	0.6
Cc1ccc(C)c(NC(=O)CCCn2nc(C)c3sc4ccccc4c3c2=O)c1	4.1%	·	·	-0.2	-23.5	·
CC1=C(C(=O)N2CCOCC2)CC(CC(=O)NCc2ccco2)C(=O)N1Cc1ccc(F)cc1 (configuration not stated)	7.7%	-2.9	-0.7	0.5	-4.5	-4.3
O=C(Nc1cccc2ncccc12)c1cc2ccccc2o1	-1.5%	-4.4	0.0	-0.9	13.6	13.6
CCn1c(NCc2cccc(Cl)c2)nc2ccccc21	1.7%	·	·	0.1	36.4	·
COc1cc(NC(=S)NC(=O)c2ccco2)ccc1NC(=O)C(C)C	0.7%	-4.9	24.5	-0.3	-13.3	8.0
COc1ccc(CC2(CO)CCN(S(=O)(=O)N(C)C)CC2)cc1	0.7%	-7.3	·	1.0	-7.5	5.2
CC(=O)N1c2ccccc2NC(=O)C1(C)C	-0.9%	-2.8	3.4	0.1	-16.5	7.5
COC(=O)Cn1cc(S(=O)(=O)NCc2ccc(C)cc2)c2cc([N+](=O)[O-])ccc21	-2.0%	-1.4	-4.7	2.1	-9.0	-3.0
O=C(COC(=O)/C=C/C(=O)OCC(=O)Nc1ccccc1F)Nc1ccccc1F	3.8%	0.1	·	-0.1	-0.7	1.7
Cc1ccc(Nc2nc(N)c([N+](=O)[O-])c(N3CCOCC3)n2)cc1C	1.8%	-9.0	8.5	-0.3	36.4	-23.5
CCCS(=O)(=O)c1c(S(=O)(=O)CCC)c2cnccn2c1C(=O)c1ccc(OC)cc1	1.9%	-2.9	-12.7	4.8	-13.3	-5.5
CCOC(=O)C1CCN(S(=O)(=O)c2cc(Br)cc3c2N(C(C)=O)C(C)C3)CC1 (configuration not stated)	-0.4%	-1.0	1.9	-0.7	-2.8	-0.7
CC(C)(C)c1ccc(C(=O)OCC(=O)NC2CC2)cc1	-1.3%	0.6	1.0	0.9	-5.3	3.3
O=c1[nH]c2ccc(NC(=S)Nc3ccc(F)cc3)cc2[nH]1	1.9%	-3.1	-9.0	0.0	-12.5	-1.3
O=C(O)c1ccc(-n2[nH]c3c(c2=O)CCCC3)cc1	3.0%	-6.1	-0.3	-0.2	-4.1	-11.0
Cc1cccc(N2CCN(C(=O)c3c(C)oc4ncnc(N5CCCCC5)c34)CC2)c1C	1.7%	·	·	-0.8	-22.6	·
CCOC(=O)c1c(-c2ccc(OC)cc2)cn2ccccc12	0.0%	-3.2	2.6	-0.2	-7.5	6.4
COc1ccccc1CNC(=O)Nc1nc(C(N)Cc2ccc(Cl)cc2)cs1 (configuration not stated)	-1.4%	7.7	-5.5	1.8	·	0.0
CCOC(=O)C1=C(C)N(C)C(=S)NC1c1cc(OC)ccc1OC (configuration not stated)	1.0%	2.4	·	4.7	22.4	-22.6
CCOC(=O)c1c(N)n[nH]c1-c1ccccc1	-1.3%[38.3 µM]	-2.0	-3.8	0.3	6.9	-0.4
CCCOc1cccc(C2C(C(=O)c3ccco3)=C(O)C(=O)N2CCCn2ccnc2)c1 (configuration not stated)	0.3%	0.6	·	0.6	6.8	-1.2
Cc1cc(Br)ccc1NC(=O)C(Cc1ccccc1)NS(=O)(=O)c1ccc(Br)s1 (configuration not stated)	8.5%	·	·	1.0	?	·
COc1cnc(-c2ccccc2)nc1Oc1ccc(C(C)(C)C)cc1	21.5%	-5.0	15.3	-0.2	-8.7	9.7
CCCN(CC1CC1)S(=O)(=O)c1ccc(-n2cnnn2)c(OC)c1	4.1%[38.3 µM]	-1.8	-7.2	-0.2	-11.9	-2.2
